High-throughput results deposited in PubChem by National Center for Advancing Translational Sciences (NCATS).
SARS PLP yeast: blocks SARS-CoV papain-like protease in a yeast assay. S. cerevisiae expressing SARS-CoV PLpro, growth rescue; control for the full effect not named in the record. Potency, µM (series often up to 32.9 µM), for inactives: at the top dose activity, positive = growth rescue. hit rate 0.19% among 330,000; active means well fitted rising curve with a large enough effect; inconclusive means small, poorly fitted or top-dose-only effect; inactive means no such curve, though single readings can be large or run the other way; note: 0% is about no effect; nearly all actives have a fitted effect of over 55% in size; growth read by luminescence after 48 h
RE007 growth inh: less growth of the S. pombe RE007 Vpr strain; S. pombe RE007 Vpr strain, BacTiter-Glo ATP luminescence, 24 h; control for the full effect not named in the record; Potency, µM (doses to about 92.2 µM), for the others: at the highest dose activity change, negative = less growth; hit rate 0.21% among 360,000; AID 651644; active = well fitted falling curve with a large enough effect; inconclusive = small, poorly fitted or top-dose-only effect; inactive = no such curve, though single readings can be large or run the other way;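 note: % is set by controls: 0 for no effect and ±100 for the full control effect; nearly all actives have a fitted effect of over 50% in size; the assay follows cell death caused by Vpr and the record does not say whether a fall means rescue or toxicity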
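Fission yeast strain RE007, carrying one chromosomally integrated HIV-1 vpr copy, was seeded at OD 0.01 in PMG+AL medium with 23 nL pinned compound. After 24 h at 30 °C and 99% humidity, viability was read by BacTiter-Glo luminescence.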
MARV entry inh: inhibitors of Marburg virus binding or cell entry | Marburg virus pseudotyped entry inhibition, cell reporter; control for the full effect not named in the record; about a third of the inactives were read at about 46 µM | Potency, µM (series often up to 37.8 µM), for the others: at the top dose activity change, negative = inhibition, hits mostly inhibitors | hit rate 1.8% among 300,000; active = well fitted inhibition curve with a large enough effect; inconclusive = small, poorly fitted or top-dose-only effect, or effect the other way; inactive = flat fitted curve, though single readings scatter; tested in HEK293 cells; about a fifth of its hits are not listed in these tables; note: % is set by controls: 0 for no effect and ±100 for the full control effect; luciferase read-out
Cruzain Triton: blocks cruzain activity in presence of Triton detergent; Potency, µM, for the others: max response, negative = inhibition, most hits filed as inhibitors; hit rate 0.43% among 200,000; P25779; purified cruzain, Z-FR-AMC fluorescence, 0.01% Triton;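 note: plate controls were neutral wells for no effect and buffer without enzyme for full effect; nearly all actives have a fitted effect of over 40% in size; top concentration of the series not given in the record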
Target sequence (P25779 123-467 limits assumed): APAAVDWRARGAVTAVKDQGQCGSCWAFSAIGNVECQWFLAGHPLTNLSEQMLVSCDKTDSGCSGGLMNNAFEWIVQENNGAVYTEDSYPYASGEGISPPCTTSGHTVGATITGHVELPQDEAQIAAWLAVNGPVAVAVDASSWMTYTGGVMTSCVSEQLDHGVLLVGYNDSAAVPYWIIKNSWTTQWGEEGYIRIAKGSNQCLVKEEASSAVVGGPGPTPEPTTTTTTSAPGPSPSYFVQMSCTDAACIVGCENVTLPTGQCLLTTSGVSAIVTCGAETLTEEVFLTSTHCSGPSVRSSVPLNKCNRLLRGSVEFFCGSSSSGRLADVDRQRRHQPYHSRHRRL
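In this qHTS format, compounds are incubated with 1.5 nM cruzain for 15 min at room temperature before 2 uM Z-FR-AMC is added. Release of AMC is followed at 360/450 nm, and progress is taken as the 60 s fluorescence difference.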
LASV entry inh: Lassa virus entry inhibition; hit rate 1.2% among 300,000; Potency, µM (titrated, usually from 37.9 µM), inactives show at the top dose activity change, negative = inhibition, most hits filed as inhibitors; AID 540256; Lassa virus pseudotype entry inhibition, cell reporter; control for the full effect not named in the record; active means well fitted inhibition curve with a large enough effect; inconclusive means small, poorly fitted or top-dose-only effect, or effect the other way; inactive means flat fitted curve, though single readings scatter; tested in HEK293 cells; note: % is set by controls: 0 for no effect and ±100 for the full control effect; nearly all actives have a fitted effect of over 50% in size; luciferase read-out
Cruzain noTriton: cruzain (T. cruzi) inhibition without detergent. P25779. purified cruzain, Z-FR-AMC fluorescence, no detergent. Potency, µM, for inactives: max response, negative = inhibition, hits mostly inhibitors. AID 1476. hit rate 2.3% among 200,000;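 note: plate controls were enzyme without inhibitor for no effect and buffer without enzyme for full effect; nearly all actives have a fitted effect of over 40% in size; top concentration of the series not given in the record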
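Purified cruzain at 1.5 nM, pre-incubated 15 min with compound at room temperature in 100 mM sodium acetate pH 5.5, 5 mM DTT, 0.00005% Triton X-100. Reaction started with 2 uM Z-FR-AMC; AMC fluorescence increase over 60 s gives rate.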
NS1 function inh: inhibitors of influenza NS1 protein function; Potency, µM (highest dose often 46.1 µM), for inactives: top-dose activity, positive = more growth; AID 2326; hit rate 0.4% among 270,000; S. cerevisiae slowed by influenza A NS1, growth recovery by OD600; active means well fitted rising curve with a large enough effect; inconclusive means small, poorly fitted or top-dose-only effect; inactive means no such curve, though single readings can be large or run the other way; note: nearly all actives have a fitted effect of over 50% in size
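Growth recovery, yeast-based: influenza A NS1 expressed in S. cerevisiae causes slow growth, and suppressors are detected by OD600. The parent strain without NS1 is used as positive control.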
StopGo reporter: lowers the luciferase signal of an FMDV 2A StopGo reporter | hit rate 1.2% among 410,000 | Potency, µM (doses to about 57.9 µM), without a hit: at the highest dose signal change, negative = less light | human cells with a luciferase reporter of 2A StopGo recoding; control for the full effect not named in the record; active = well fitted falling curve with a large enough effect; inconclusive = small, poorly fitted or top-dose-only effect; inactive = no such curve, though single readings can be large or run the other way; tested in HEK293T cells; note: % is set by controls: 0 for no effect and ±100 for the full control effect; nearly all actives have a fitted effect of over 45% in size; luciferase light after 4 h
Starred values were filed as active, the others as inactive; ? = inconclusive; . = not tested or not shown; & = joins results of further samples; [ ] = another dose, or the depositor's remark. Unless noted, calls come from the whole dose curve; as a rule, active = well fitted curve in the direction sought with a large enough effect; inconclusive = small, poorly fitted or top-dose-only effect, or another doubt; inactive = no such curve, though single readings can be large; an effect the other way counts as inactive or inconclusive. Potency is the fitted concentration of half-maximal effect.

No.	Structure	SARS PLP yeast	RE007 growth inh	MARV entry inh	Cruzain Triton	LASV entry inh	Cruzain noTriton	NS1 function inh	StopGo reporter
1	Cc1ccc(C2=NC3(CCCC3)N=C2SCC(=O)Nc2ccc3c(c2)OCCO3)cc1	-45%	14%	?	-5.4%	?	6%	-52%	-8%
2	CN(C)S(=O)(=O)c1ccc(C(=O)N(c2ccccn2)c2ccccn2)cc1	.	-17%	0%	-0.4%	4%	-7%	20%	-1%
3	COc1ccccc1N=c1scc(-c2ccc(S(=O)(=O)N3CCCC3)cc2)n1C	.	.	.	-1.8%	?	20%	.	2.8µM*
4	O=C(NCCc1ccccc1)C(=O)NCC1OCCN1S(=O)(=O)c1ccccc1 (configuration not stated)	2%	-1%	6%[46.1 µM]	.	1%	.	-55%	4%
5	Cc1cc2nnc(SCC(=O)N3C(C)CCCC3C)n2c(N)n1 (configuration not stated)	9%	1%	4%	-5.4%	29%[14.3 µM]	-4%	-6%	14%
6	Cc1c(Cl)c([N+](=O)[O-])nn1CCCC(=O)Nc1cccc(Cl)c1	16%	-1%	?	-3.4%	1%	11%	-5%	-4%
7	Cc1ccccc1N=Cc1cc2c(cc1[N+](=O)[O-])OCO2	-12%	1%	-2%	-4.8%	?	5%	-9%	-9%
8	COc1ccc(NC(=O)CSc2nc3c(c(=O)n2-c2ccc(F)cc2)SCC3)cc1	0%	-17%	0%	-2.1%	.	-6%	-1%	-23%
9	CCOc1c(Cl)cc(CNC(C)C(O)c2ccccc2)cc1OC (configuration not stated)	2%	-12%	.	.	.	.	-4%	-14%
10	Cc1cnc(-c2nnc(N(C)C(=O)c3cccnc3)s2)cn1	-4%	28%	-1%[46.1 µM]	-0.1%	?	7%	-6%	22%
11	Cc1cc(/C=N/NC(=O)C(=O)NCc2ccccn2)c(C)n1-c1cccc(Br)c1	0%	-3%	?	.	-5%[46.1 µM]	.	.	-19%
12	O=C(NNC(=O)c1cccnc1SCc1cccc([N+](=O)[O-])c1)c1ccc(F)cc1	-9%	1%	?	-2.8%	?	-2%	0%	-12%
13	C#CCOCCOCCOCCNc1nc(N2CCN(C(=O)[C@H]([C@@H](C)CC)n3cc([C@@H](N)CC(C)C)nn3)CC2)nc(N2CCN(C(=O)[C@H](CCCCN)n3cc([C@@H](N)CO)nn3)CC2)n1	0%	?	.	.	.	.	4%	-5%
14	COc1cc(NC(=O)Cn2nc(C(F)(F)F)c3c2CCCC3)cc(OC)c1OC	23%	2%	?	-12%&4.8%	?	?	-7%	?
15	COc1ccc(NC(=O)Cn2c(=O)n(Cc3ccco3)c(=O)c3ccccc32)cc1	0%	15%	?	1.1%	-12%	-5%	5%	0%
16	COc1ccccc1N1CCN(S(=O)(=O)c2ccc3c(c2)NC(=O)C(C)C(=O)N3)CC1 (configuration not stated)	5%	1%	.	.	.	.	-10%	0%
17	C=CCn1c(=O)c2ccccc2n2c(SCC(=O)Nc3sc(C(=O)N(CC)CC)c(C)c3C(=O)OCC)nnc12	7%	11%	?	-6.6%	-28%&10%	10%	1%	0%
18	O=C(CCSCc1ccccc1Cl)NCc1cccs1	-2%	40%	-11%[46.1 µM]	.	-26%	.	.	30%[activator]
19	CC(C)(C)c1ccc(C(=O)N2CCN(c3nc4ccccc4o3)CC2)cc1	2%	4%	.	-5.4%	.	-9%	11%	?
20	Cc1ccc(-c2nc(CS(=O)CC(=O)N3CCN(c4ccc(Cl)cc4)CC3)c(C)o2)cc1 (configuration not stated)	.	.	.	-3.4%	?	14%	.	-24%
21	CCCN1C2CCCC1CC(NC(=S)Nc1cccc(C)c1C)C2 (configuration not stated)	11%	14%	.	.	.	.	0%	-28%
22	CNC(=O)c1ccc(NC(=O)Cc2ccc(S(=O)(=O)N3CCOCC3)s2)cc1	5%	8%	5%[46.1 µM]	.	5%	.	.	13%
23	CNS(=O)(=O)c1cn(CC(=O)N2CCN(c3cccc(Cl)c3)CC2)cc1S(=O)(=O)NC	.	.	.	-4.0%	29%[46.1 µM]	25%	.	6%
24	Cc1ccc(/C=C(\C#N)C(=O)Nc2cccc(Cl)c2)o1	.	.	.	-0.2%	27%[46.1 µM]	10µM*	.	47%[activator]
25	N#C/C(=C(/O)COC(=O)COc1cccc(Br)c1)c1nc2ccccc2[nH]1	0%	25%	.	.	.	.	5%	-28%
26	COC(=O)c1ccc(COc2ccc(C(=O)c3ccccc3)cc2)o1	-4%	-5%	8%	.	-17%	.	2%	-25%
27	O=C(NC1CCCC1)C1CCC(=O)N1CCc1ccccc1 (configuration not stated)	-15%	1%	-15%	-2.8%	-5%	-2%	-4%	12%
28	Cn1cc([N+](=O)[O-])c(C(=O)Nc2ccc(C3CCCCC3)cc2)n1	-5%	-5%	.	.	.	.	-11%	43%[activator]
29	CCOc1ccc(-c2c(C(=O)N/N=C/c3ccsc3)nnn2-c2nonc2N)cc1	-4%	-6%	.	.	.	.	8%	-7%
30	CCN1CCN(c2ccc([N+](=O)[O-])cc2S(=O)(=O)N2CCOCC2)CC1	0%	-13%	?	.	1%[46.1 µM]	.	-1%	-10%
31	CCOC(=O)Nc1ccc(Cc2ccncc2)cc1	0%	-6%	-3%[46.1 µM]	.	.	.	-2%	18%
32	O=C1CSc2ccc(C(=O)N3CCN(c4ccccn4)CC3)cc2N1	7%	-1%	-17%	-8.8%	12%	-11%	-3%	?
33	CC(/C=C/c1ccco1)=N/NC(=O)C1COc2ccccc2O1 (configuration not stated)	-4%	-19%	.	.	.	.	-7%	-2%
34	CC(=O)NNC(=S)NCCc1ccccc1	-2%	29%	-10%[46.1 µM]	.	1%	.	.	-7%
35	Cc1ccc(/C=N\Nc2cn[nH]c(=O)c2Cl)cc1	9%	-7%	-7%	-4.9%	11%	-13%	-38%	77%[activator]
36	COc1ccc(N2C(=O)CSC2c2cccc(OC)c2OC)cc1 (configuration not stated)	11%	2%	-10%	-2.1%	-10%	4%	-3%	-3%
37	COc1ccc(C2C(C(=O)NCCN(C)C)c3cc(OC)c(OC)cc3C(=O)N2C)cc1OC (configuration not stated)	6%	-15%	11%&11%[46.1 µM]	3.4%	-2%	-3%	0%	6%
38	COC(=O)C1=CN(C)C=C(C(=O)OC)C1c1ccc(Cl)cc1Cl	6%	27%	13%	-21%	-2%	16%	-6%	-24%
39	COc1ccc(N2C(=NC(=O)c3ccccc3)SC3CS(=O)(=O)CC32)cc1 (configuration not stated)	0%	-11%	0%[46.1 µM]	.	-18%	.	-10%	-2%
40	CC1=C(C(=O)N(C)C)C(c2cccc(Cl)c2)NC(=O)N1 (configuration not stated)	-1%	0%	28%	-0.6%	4%	-4%	2%	-15%
41	CCOC(=O)c1c(N)n[nH]c1-c1ccc(OC)cc1	-3%	-2%	-34%	-4.3%	-33%[14.3 µM]	-3%	3%	-17%
42	CCc1cc(CC)c(/C=N/NC(N)=O)c(CC)c1/C=N/NC(N)=O	1%	3%	?	.	5%[46.1 µM]	.	.	-15%
43	CCOC(=O)CSc1nnc(CSc2nc3ccccc3s2)n1C	8%	8%	-2%	1.1%	1%	-3%	-72%	.
44	CCc1ccccc1NC(=O)c1cc(-c2ccco2)on1	-12%	-6%	2%[46.1 µM]	.	-2%	.	-31%	4%
45	c1ccc(-n2c(Sc3cnccn3)nnc2-c2cccs2)cc1	1%	-4%	-3%[46.1 µM]	4.0%	-1%	3%	4%	14%
46	COc1ccccc1N1CCN(C(CNC(=O)C(=O)NCc2ccc(F)cc2)c2cccnc2)CC1 (configuration not stated)	.	.	.	-5.2%	?	?	.	?
47	COc1cc(NC(=O)CSc2cc(C)c3cc(C)cc(C)c3n2)c(C(=O)O)cc1OC	2%	-7%	.	.	.	.	-64%	-2%
48	Cc1cc(C)cc(N(CCC#N)C(=O)COC(=O)CCc2c[nH]c3ccccc23)c1	1%	-15%	-1%	.	-7%	.	.	5%
49	CCCCN(Cc1ccco1)C(=O)c1cc2c(=O)[nH]c3ccc(C)cc3c2s1	6%	0%	.	-15%	.	26%	20%	-8%
50	Cn1c2c(c(O)c(-c3ccccc3)c1=O)C(=O)CC(C)(C)C2	2%	-12%	-6%	-2.6%	-17%	-10%	10%	1%
51	Cc1ccc(CS(=O)(=O)CCC(=O)NCCc2ccccc2)cc1	-1%	-10%	15%	.	?	.	4%	12%
52	CCOc1ccc(C2C(=O)N(C3CCCCCC3)CC(=O)N2Cc2ccc(C)cc2)cc1OC (configuration not stated)	.	.	.	0.6%	?	?	.	-14%
53	CCn1c(C)nnc1SCC(=O)Nc1ccccc1OC	4%	0%	3%	.	-8%	.	-3%	2%
54	COc1cccc(N2C(=O)C3CCCN3C2c2ccc(Cl)cc2)c1 (configuration not stated)	-10%	13%	.	-4.4%	.	-10%	0%	-20%
55	Cc1noc(C)c1CSCC(=O)Nc1ccc(Br)cc1Cl	0%	-19%	4%	.	-19%	.	.	-20%
56	COc1ccc(-n2nnnc2-c2cn(C)nc2C(F)(F)F)cc1	1%	-3%	?	3.1%	-1%	-9%	13%	-14%
57	CCOc1ccc2c(c1)C(c1cccs1)=NNC(c1cccnc1)=N2	2%	-8%	-16%[46.1 µM]	.	-13%	.	.	-20%
58	CCCCN(CC)CCCNC(=O)Cn1ncc2c([nH]c3ccc(C)cc32)c1=O	.	.	.	-2.0%	?	-5%	.	-5%
59	O=C1C(=O)N(CCCO)C(c2ccccc2)/C1=C(\O)c1ccc(Br)cc1 (configuration not stated)	-10%	0%	.	.	.	.	-4%	-9%
60	C(=N\NC1=NCCN1)/c1ccncc1	3%	-13%	.	.	.	.	13%	-2%
